Source: PubChem (several laboratories)
Env fusion inh: inhibitors of HIV-1 Env-driven cell-cell fusion, primary screen, HeLa-JRFL effector, CEM21 target cells, luciferase | inhibition, % at 12.3 µM | actives 1.1% (n = 360,000);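 active = mean replicate inhibition score of at least 50 and every replicate individually at or above 50; inconclusive = only one of the two criteria met; inactive = mean below 50 and not all replicates reaching 50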;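 note: 0% = plate neutral controls and 100% = maraviroc near 300 nM; one replicate is shown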
Yeast UUG start: modulators of yeast start codon fidelity, primary screen, whole organism, S. cerevisiae, single point, plate reader. actives 0.13% (n = 350,000). S. cerevisiae UUG-firefly luciferase reporter, luminescence/redox ratio. activity score, % at 18.7 µM;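 active = replicate mean at a twofold rise or more, about +100% in these data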;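 note: firefly luciferase made from a UUG start codon reports start codon fidelity; reporter light over untreated wells divided by growth signal over untreated wells; some hits fall short of that in this replicate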
MT1-MMP act inh: blockers of MT1-MMP proenzyme processing, primary screen, HT1080 RFP-PRO-GFP cells, GFP/RFP fluorescence | GFP/RFP ratio fluorescence, overnight; percent of plate control window, DMSO zero | GFP/RFP ratio change, % at 20 µM | actives 0.061% (n = 360,000) | AID 651647, 2012;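 active = GFP/RFP ratio change of at least 30% with cell ATP level not reduced by more than half and red fluorescence within 50% of control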; note: strong numbers were not always called active
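Assay system – RFP-PRO-GFP reporter HT1080 cells · Compound dosing – single dose of 20 µM compound, 1% DMSO final · Incubation – overnight compound exposure at 37 °C · Measure – GFP/RFP fluorescence ratio · Benchmarks – DMSO wells and RFP-L50D-GFP cells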
Rce1 inhib: yeast Rce1p protease inhibitors, primary screen, biochemical, fluorescence, cell-free homogeneous; yeast membranes, quenched prenylated peptide cleavage fluorescence; calls only; actives 0.27% (n = 290,000); AID 2563, 2010;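 active = fall in fluorescence gain of 50% or more versus controls, with final raw signal at or below 3038400; inconclusive = same 50% fall but final raw signal above 3038400; inactive = fall in fluorescence gain under 50%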;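 note: plate controls were neutral control wells for no effect and wells lacking membranes for full effect; tested at 10 µM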
Target sequence (Q03530 whole entry, looked up): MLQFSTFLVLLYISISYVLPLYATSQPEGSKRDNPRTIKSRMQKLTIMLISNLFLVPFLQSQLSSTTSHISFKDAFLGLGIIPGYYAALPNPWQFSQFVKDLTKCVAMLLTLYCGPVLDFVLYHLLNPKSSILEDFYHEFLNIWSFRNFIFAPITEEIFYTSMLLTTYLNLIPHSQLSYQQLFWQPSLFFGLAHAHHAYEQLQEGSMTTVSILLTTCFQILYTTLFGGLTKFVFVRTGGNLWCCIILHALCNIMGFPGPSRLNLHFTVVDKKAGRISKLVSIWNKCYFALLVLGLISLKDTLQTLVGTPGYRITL
eIF4H inh: human eIF4H binding inhibitors, primary screen, translation initiation inhibitor project, biochemical, uHTS, fluorescence polarization | Eukaryotic translation initiation factor 4H (Homo sapiens), Q15056 | eIF4H fluorescence polarization binding assay | inhibition, % at 35 µM | actives 0.94% (n = 290,000);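 active = 50% or more with normal probe brightness, or confirmed in later tests; inconclusive = above 50% with abnormal brightness, or retests that disagree; inactive = below 50% or failed in later tests; about a fifth of its hits are not listed in these tables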;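 note: calls also rest on retests at 20 µM and on dose response follow-up; 0% = protein and probe with vehicle and 100% = probe without protein; strong numbers were not always called active; many hits fall short of the cut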
CSC inhib: cancer stem cell viability inhibitors, primary screen, luminescence | cancer stem cell-like cells viability | inhibition, % at 7.5 µM | actives 1.1% (n = 300,000) | AID 2717, 2010;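 active = mean at 75% or more and at least half the replicates too; inconclusive = mean and replicates disagree; tested in HMLE shEcad cells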;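 note: 0% = median of negative and 100% = median of positive control wells; the first replicate is given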
PABP polyA inh: PABP poly(A) RNA binding inhibitors, primary screen, biochemical, fluorescence polarization, uHTS | actives 1% (n = 290,000) | inhibition, % at 35 µM;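 active = 50% or more with normal probe brightness, or confirmed in later tests; inconclusive = above 50% with abnormal brightness, or retests that disagree; inactive = below 50% or failed in later tests; about a fifth of its hits are not listed in these tables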;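 note: calls also rest on retests at 20 µM and on dose response follow-up; controls were probe without protein and protein plus probe with vehicle; some compounds called inactive have numbers as strong as hits; many hits fall short of the cut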
eIF4H inh retest: second read-out of eIF4H inh, no call of its own (marks repeat the call); inhibition, %; compound at 20 µM; confirmation average;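 mean of two retest wells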
PABP polyA inh retest: second read-out of PABP polyA inh, no call of its own (marks repeat the call); inhibition, %; compound at 20 µM; confirmation repeats;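 mean of two retest wells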
MT1-MMP act inh RFP: further read-out of MT1-MMP act inh, marked with its call; RFP signal change, %; measured here: RFP expression control read;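 0 = vehicle wells; hits needed this value within 50% of zero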
Numbers without * were called inactive; i = inactive; ? = inconclusive; / = no result given; + = active, no number.

SMILES | Env fusion inh | Yeast UUG start | MT1-MMP act inh | MT1-MMP act inh RFP | Rce1 inhib | eIF4H inh | CSC inhib | PABP polyA inh | others
CCOC(=O)C1C(=O)C=C(c2ccc(C)cc2)CC1c1ccc([N+](=O)[O-])cc1 (stereo unspecified) | -3 | / | 0 | -8 | / | -4 | / | 1
Brc1ccc(OCc2ccccc2)c(CNCC2CCCO2)c1 (stereo unspecified) | 1 | / | 0 | 0 | i | -3 | -20 | 6
Cc1nn(-c2cc(N3CCCC3)ccc2[N+](=O)[O-])c(=O)c2ccccc12 | -148 | -15 | 2 | 0 | i | -10 | 3 | -1
CC(C)OCCCNC(=O)c1ccc(C2SCC(=O)N2Cc2ccco2)cc1 (stereo unspecified) | 33 | / | 7 | 2 | i | 8 | 6 | 8
Cc1cc(C)nc(SCC(=O)Nc2ncc(Cc3ccc(Cl)c(Cl)c3)s2)n1 | 0 | -9 | 6 | -11 | i | 4 | 11 | -4
CNc1ncnc2c1ncn2[C@H]1CN(Cc2ccc(Cl)cc2)C[C@@H](CO)O1 | 7 | -11 | 1 | 4 | / | / | / | /
CCc1c(C)sc2nc(C(C)C)nc(SCC(=O)N3CCc4ccccc4C3)c12 | / | / | / | / | i | 2 | 192* | -14
Cc1ccc(C)n1-c1ccc(-n2cnnn2)cc1 | -250 | 4 | -8 | 6 | i | 23 | -11 | 26
Cc1nc(NC(=O)COC(=O)c2ccc(S(=O)(=O)N3CCc4ccccc4C3)cc2)c(Cl)cc1Cl | 1 | / | 0 | 8 | i | 0 | -11 | 4
O=C(Cn1cc([N+](=O)[O-])cn1)Nc1cccnc1 | -79 | / | 5 | 6 | i | 8 | -7 | 0
O=C(CSc1nc2ccc(Cl)cc2[nH]1)NC1CCCc2ccccc21 (stereo unspecified) | 8 | / | -9 | -17 | i | -10 | -24 | -1
CC(C)Cc1nnc(NC(=O)c2ccncc2)s1 | / | -20 | -3 | -1 | i | -2 | -2 | 2
COc1ccc(N2C(=O)/C(=C/c3cccnc3)NC2=S)cc1 | 3 | / | 2 | 4 | i | -3 | -9 | ?
CCOC(=O)CC1(NC(=O)c2cc(COc3cccc(OC)c3)on2)CCCCC1 | 4 | -17 | -4 | -15 | i | -12 | 6 | 15
CCC(NC(=O)c1cc(COc2c(F)cccc2F)on1)c1ccncc1 (stereo unspecified) | / | 5 | 1 | -6 | / | 3 | -4 | -2
Cc1ccccc1-n1nc2c(c1NC(=O)CCCl)CSC2 | 4 | -6 | 1 | 1 | i | -10 | -9 | 3
NC(=O)CSc1nnc(-c2cnccn2)n1-c1ccccc1 | / | -14 | 1 | 4 | i | 2 | / | -2
CCOC(=O)N1CCC(NC(=O)c2cc3ccccn3n2)CC1 | 11 | -30 | 3 | 0 | i | -7 | -11 | 12
COc1cc(-c2nc3n(c(=O)c2C#N)CCS3)cc(OC)c1OC | -16 | 7 | -2 | -2 | i | -1 | -6 | 2
CCO[C@H]1OC(C(=O)N2CCN(Cc3ccccc3)CC2)=C[C@@H](C2CCCCC2)[C@@H]1CCCO | 15 | -17 | 0 | -5 | i | 6 | 36 | 1
O=C(Nc1cccc(S(=O)(=O)N2CCOCC2)c1)c1ccc2c(=O)n3c(nc2c1)CCCCC3 | 11 | 3 | 5 | -15 | i | -11 | / | -4
COc1ccc(-c2cn3ccccc3n2)cc1[N+](=O)[O-] | -102 | / | / | / | + | -4 | 13 | -8
CC(CNC(=O)CCC(=O)N1CCOc2ccc(Cl)cc21)c1ccccc1 (stereo unspecified) | -4 | 3 | -1 | 0 | i | -6 | -1 | -8
Cc1c(NC(=O)c2cc(-c3ccccc3)nc3ccccc23)c(=O)n(-c2ccccc2)n1C | -36 | 5 | 2 | -3 | / | / | -1 | /
CC1(C(=O)NNC(=S)NCc2ccco2)CC1(Cl)Cl (stereo unspecified) | -17 | / | -3 | -1 | i | 5 | -19 | -3
O=C(Nc1ccc(F)cc1)c1ccccc1NS(=O)(=O)N1CCCC1 | 18 | / | 4 | 4 | i | -11 | 8 | -5
NC1(C#Cc2ccc3oc(=O)c(-n4cc(-c5ccsc5)nn4)cc3c2)CCCCC1 | 12 | -17 | -6 | -4 | / | / | 14 | /
C=Cn1cc[n+](CC(=O)c2ccc(Cl)cc2)c1 | 6 | -14 | 1 | 1 | i | -3 | -7 | -7
O=C(NCC1CCCO1)c1c(O)c2cccc3c2n(c1=O)CC3 (stereo unspecified) | / | 17 | 1 | 3 | i | -2 | 4 | -15
CC1=Nc2cc(C(=O)N3CCCC3)ccc2Sc2ccc(C)cc21 | -26 | -4 | -1 | 2 | i | -6 | -15 | 0

Nothing new here: an excerpt of the list.
SMILES | Env fusion inh | Yeast UUG start | MT1-MMP act inh | MT1-MMP act inh RFP | Rce1 inhib | eIF4H inh | CSC inhib | PABP polyA inh | others
Cc1ccccc1-n1nc2c(c1NC(=O)CCCl)CSC2 | 4 | -6 | 1 | 1 | i | -10 | -9 | 3
NC(=O)CSc1nnc(-c2cnccn2)n1-c1ccccc1 | / | -14 | 1 | 4 | i | 2 | / | -2
CCOC(=O)N1CCC(NC(=O)c2cc3ccccn3n2)CC1 | 11 | -30 | 3 | 0 | i | -7 | -11 | 12
COc1cc(-c2nc3n(c(=O)c2C#N)CCS3)cc(OC)c1OC | -16 | 7 | -2 | -2 | i | -1 | -6 | 2
CCO[C@H]1OC(C(=O)N2CCN(Cc3ccccc3)CC2)=C[C@@H](C2CCCCC2)[C@@H]1CCCO | 15 | -17 | 0 | -5 | i | 6 | 36 | 1

Next structures
SMILES | Env fusion inh | Yeast UUG start | MT1-MMP act inh | MT1-MMP act inh RFP | Rce1 inhib | eIF4H inh | CSC inhib | PABP polyA inh | others
CCn1c(Sc2nc(C)nc3scc(-c4cccs4)c23)n[nH]c1=O | 15 | -13 | -2 | -2 | i | -10 | 18 | -2
COC(=O)[C@@]1(Cc2ccc(OC)cc2)[C@@H]2[C@@H](CC(=O)[C@H]2CC(=O)C(=O)N(C)C)CN1C(=O)c1ccccc1 | -29 | -14 | 0 | 0 | i | 28 | 1 | 8
CCOCCCNC(=O)C(NC(=O)c1ccccn1)c1ccc(C)cc1 (stereo unspecified) | / | -16 | -1 | 3 | i | 0 | / | -3
COc1ccc(-n2nc([N+](=O)[O-])c(=NCCc3ccccc3)n2O)cc1 | / | 0 | 2 | 1 | i | -7 | 16 | 3
Cc1ccc(C=Nc2cc([N+](=O)[O-])ccc2C)s1 | 10 | -12 | 2 | 6 | i | 4 | -7 | 12
COc1ccccc1N(CC(=O)NC1CCCCC1)S(C)(=O)=O | / | -15 | 2 | 4 | i | 8 | 2 | 5
CC(OC(=O)c1cccnc1SCc1cc(=O)n2ccccc2n1)c1ccccn1 (stereo unspecified) | 19 | -7 | -9 | -2 | i | 0 | 10 | 0
O=C(CSc1nc2c(c(=O)n1-c1ccc(F)cc1)SCC2)NCC1CCCO1 (stereo unspecified) | -25 | -5 | 1 | 4 | i | -6 | -5 | 1
COC(=O)C(NC(=O)c1ccc(OC)cc1)(Nc1ncc(S(=O)(=O)c2ccc([N+](=O)[O-])cc2)s1)C(F)(F)F (stereo unspecified) | / | 3 | -11 | -14 | i | 1 | 7 | 1
Cc1c(C(=O)NN)nn(-c2ccc(Cl)cc2)c(=O)c1C#N | -5 | / | 9 | 0 | i | 3 | -2 | 11
O=C(NCCc1cn2ccccc2n1)c1ccc(Br)o1 | -9 | -2 | 4 | 6 | i | -6 | -7 | -1
COC(=O)CCCC1=CC2=CC(=O)C(C)(OC(=O)c3cccs3)C(=O)C2=CN1CCN1CCOCC1 (stereo unspecified) | 14 | 10 | 13 | 4 | i | 115 | -12 | 64* | eIF4H inh retest=28;PABP polyA inh retest=53*
CSc1cccc(NC(=O)C2(S(=O)(=O)c3ccc(C)cc3)CC2)c1 | 2 | 0 | 1 | 1 | i | -5 | / | -9
O=C(Cn1cncn1)N/N=C/c1cccc2ccccc12 | 14 | -16 | 3 | 5 | i | -3 | -15 | 2
NC(=O)c1c(NC(=O)CSc2nc3c(c(C(F)(F)F)n2)CCc2ccccc2-3)sc2c1CCCC2 | / | / | -2 | 2 | i | -11 | 11 | 2
O=C(O)/C=C/c1ccccc1Oc1ccccc1 | / | / | -1 | -3 | i | 1 | -8 | 1
CCOC(=O)Nc1sc2c(c1C#N)CCCC2 | / | -4 | 1 | 5 | i | 4 | -16 | -1
O=C(NCCCn1ccnc1)c1ccc(-c2ccccc2)cc1 | 3 | -13 | 2 | 3 | i | -1 | -15 | 0
Cc1cc(N2CCCCC2)nc(SCc2ccc(C#N)cc2)n1 | 18 | -18 | -11 | -15 | i | -8 | / | 10
COc1ccc(C(=O)NCc2nnc(SCC(=O)Nc3cccc(OC)c3)o2)cc1 | -12 | -13 | 2 | 5 | i | -10 | -10 | -9
COc1ccc2c(CSc3nnc(-c4cccnc4)n3-c3ccccc3F)cc(=O)oc2c1 | -9 | -12 | -4 | 1 | i | 1 | -4 | 10
O=[n+]1c2c(n([O-])c3cc(Br)ccc31)CCCC2 | / | -11 | 3 | -4 | i | -1 | -23 | 0
OC1(c2ccc(F)cc2)CN(c2ccccc2)C2=[N+]1CCS2 (stereo unspecified) | 6 | -12 | -1 | 1 | i | -16 | -4 | -1
O=C(NCc1ccccc1)c1nc2c(nnn2Cc2cccc(Cl)c2)c(=O)[nH]1 | / | 13 | 16 | 3 | i | -4 | 11 | -6
CCS(=O)(=O)c1ccc(O)c(NC(=O)COc2ccc(C)cc2)c1 | ? | / | 7 | 8 | i | -2 | 1 | -1
Cc1cc(NC(=O)CSc2nnc(-c3ccc(S(=O)(=O)N4CCCC4)cc3)n2C)no1 | -1 | -13 | 6 | 4 | i | 2 | -6 | -1
O=C(CN1CCN(c2ccc(O)cc2)CC1)Nc1ccc(-c2ccccc2)cc1 | 15 | -28 | -6 | -2 | i | -8 | 71 | 14
Cc1ccccc1S(=O)(=O)Cc1ccc(C(=O)NCc2ccco2)o1 | 11 | / | -1 | -2 | i | -12 | -10 | -3
C=CCn1nnnc1SCC(=O)Nc1ccc(OC)cc1 | -3 | -13 | 1 | 4 | i | -2 | 10 | -1
CC(Sc1nc2ncc(Cl)cc2[nH]1)C(=O)Nc1ccccc1[N+](=O)[O-] (stereo unspecified) | 0 | -17 | -1 | -7 | / | / | / | /
CCN1CCN(C(c2ccc(OC)cc2)C(O)C(=O)c2c[nH]c3ccccc23)CC1 (stereo unspecified) | / | -4 | -5 | -1 | i | -2 | -9 | -3
COc1cccc(-c2nc3sc4c(c3c(=O)[nH]2)CCCCC4)c1 | -305 | -11 | 0 | -5 | i | -2 | -4 | -12
CCc1ccc(NC2=NCC(=O)N2Cc2ccc3c(c2)OCO3)cc1 | -86 | 86 | -7 | -2 | i | 2 | 27 | 24
O=C1C=C(c2ccc(Cl)c(C(F)(F)F)c2)C[C@@H](c2ccc(Cl)cc2)C1 | 22 | -7 | 2 | 4 | / | / | 116* | /
